# From PubChem BioAssay
# miR-21 reporter = raises the signal of a miR-21 reporter; HeLa miR-21 FLuc reporter, luciferase, 48 h; Potency, µM (top dose mostly 38.3 µM), for the others: at the highest dose reporter change, positive = more light; AID 2288; 340,000 tested, under 10 active; active = well fitted rising curve with a large enough effect; inconclusive = small, poorly fitted or top-dose-only effect; inactive = no such curve, though single readings can be large or run the other way;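 note: % of control where 0% means no effect; miR-21 action dims this reporter so a rising signal means less miR-21 action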
#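 HeLa miR-21-FLuc reporter line, endogenous miR-21; 2000 cells/well in DMEM/10% FBS; compound titration up to ~40uM final, 48 h, 37 degree Celsius; luciferase detection reagent, 15 min lysis, CCD luminescence.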
# GLA inh pH 4.5 = blocks human alpha-galactosidase A at pH 4.5 | P06280 | purified enzyme, 4-MU-alpha-Gal fluorescence, pH 4.5 | activity change, negative = inhibition, % at 105 µM | 230,000 tested, under 10 active; inconclusive = small, poorly fitted or top-dose-only inhibition, or a rising curve; inactive = flat fitted curve, though single readings scatter; no compound was filed as active;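 note: 0% = full activity with enzyme and -100% = basal without enzyme; dose as in the result columns while the protocol names 77 µM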
# Rango-impB inh = inhibitors of Rango-importin beta complex formation | Q14974 | Rango CFP/YFP FRET sensor + importin beta, 45 min | Potency, µM (series often up to 92.2 µM), for inactives: top-dose inhibition of complex formation | 0.031% of 340,000 active | AID 540263; active = rising FRET ratio curve, often small or poorly fitted; inconclusive = mostly compound fluorescence or quenching in the first reads; inactive = flat curves in all reads;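 note: potency is the fitted concentration of half-maximal effect; 0% = DMSO wells and 100% = buffer wells lacking importin beta; nearly all actives have a fitted effect of over 15% in size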
# Target sequence (Q14974 whole entry, looked up): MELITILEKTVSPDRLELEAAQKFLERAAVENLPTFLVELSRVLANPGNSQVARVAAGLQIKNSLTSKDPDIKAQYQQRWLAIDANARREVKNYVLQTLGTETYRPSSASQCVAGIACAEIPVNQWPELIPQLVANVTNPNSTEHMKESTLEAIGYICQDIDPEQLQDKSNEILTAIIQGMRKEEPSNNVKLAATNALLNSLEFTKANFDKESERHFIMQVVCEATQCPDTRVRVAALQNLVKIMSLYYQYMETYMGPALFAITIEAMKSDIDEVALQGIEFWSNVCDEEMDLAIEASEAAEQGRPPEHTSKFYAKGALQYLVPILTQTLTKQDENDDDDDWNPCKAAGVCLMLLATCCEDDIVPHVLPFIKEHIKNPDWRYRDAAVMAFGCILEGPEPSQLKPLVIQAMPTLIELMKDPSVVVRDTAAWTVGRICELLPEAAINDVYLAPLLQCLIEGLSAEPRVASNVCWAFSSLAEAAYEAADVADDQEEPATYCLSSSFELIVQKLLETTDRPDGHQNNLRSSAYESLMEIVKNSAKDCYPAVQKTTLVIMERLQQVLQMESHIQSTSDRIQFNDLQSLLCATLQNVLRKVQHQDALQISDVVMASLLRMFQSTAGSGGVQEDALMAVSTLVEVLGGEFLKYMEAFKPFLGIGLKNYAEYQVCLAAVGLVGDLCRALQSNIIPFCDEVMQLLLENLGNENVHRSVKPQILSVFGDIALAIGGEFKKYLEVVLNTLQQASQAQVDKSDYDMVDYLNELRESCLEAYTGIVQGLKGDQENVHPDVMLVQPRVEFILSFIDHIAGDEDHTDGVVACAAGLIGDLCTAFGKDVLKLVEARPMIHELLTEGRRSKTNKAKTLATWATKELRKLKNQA
#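 FRET biosensor (snurportin 1 IBB flanked by EYFP and cerulean), 50 nM, with compound 5 min, then 0.125 microM importin beta in PBS, 1 mM DTT, 0.02% Tween-20, 0.1% BSA. CFP/YFP ratio read after 45 min at room temperature; pre-read flags interference.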
# Rango release inh = inhibitors of RanGTP-induced Rango-importin beta complex dissociation; O95149+P62826; Biochemical FRET Rango-importin beta, RanGTP-induced dissociation; Potency, µM (highest dose often 46.1 µM), for inactives: at the highest dose activity change, negative = inhibition; 0.071% of 340,000 active; active means falling FRET ratio curve, often poorly fitted, with flat reads before Ran was added; inconclusive means other falling curves, or compound fluorescence or quenching; inactive means flat or rising ratio curve;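 note: potency is the fitted concentration of half-maximal effect; % of control where 0% means no effect; nearly all actives have a fitted effect of over 45% in size; -100% = wells without RanGTP and RCC1; the record marks most hits as doubtful in a second field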
#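 Rango/importin beta premix (0.1/0.25 uM final), PBS + 1 mM DTT + 0.02% Tween-20 + 0.1% BSA; cpd 5 min RT; FRET pre-read; + RanGTP-RCC1 (0.6 uM Ran, 2 mM GTP, 0.2 uM RCC1); 45 min RT; FRET post-read, ex 430, em 486/530 nm.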
# An asterisk follows results filed as active; ? = inconclusive; / = no result given; & = joins results of further samples. The list is partial, so the mix of outcomes need not match the whole.
Rango-impB inh,Rango release inh,GLA inh pH 4.5,miR-21 reporter,Compound
-5.1%,47%,/,0%,COc1ccc(NS(=O)(=O)c2cc3c4c(c2)C(C)C(=O)N4CCC3)cc1 (centres undefined)
0.6%,0%,1,-16%,Cc1ccc(C(=O)Nc2ncnc3sc4c(c23)CCCCC4)cc1
-2.7%,-9%,3,0%,O=C1CC(c2ccco2)CC(O)=C1C=Nc1cc(Cl)ccc1Cl (centres undefined)
?,-12%,-20,-4%,CN(C)/C=C/C(=C\C(=O)C(F)(F)F)Nc1ccc(C(F)(F)F)cc1
-3.0%,-4%,/,-6%,COc1ccc(-c2nc3ncccc3o2)cc1NC(=O)c1ccco1
0.9%,3%,-3,-2%,COc1ccc2[nH]cc(CCNC(=O)c3ccc([N+](=O)[O-])cc3)c2c1
1.3%,0%,/,-1%,CC(C)Cn1nc(-c2ccccc2)c2ccccc2c1=O
0.0%,5%,/,/,COc1ccc(NC(=O)CN(C)C(=O)c2cc(S(=O)(=O)N3CCCCCC3)ccc2OC)cc1
2.9%,1%,-4,0%,CC(C)Oc1ccc(C(CC(=O)NCc2ccco2)c2ccccc2)cc1 (centres undefined)
?,-7%,-5,0%,COc1ccc(CCNC(=O)COC(=O)/C=C/c2cccs2)cc1
1.6%,-11%,6,-1%,COC(=O)C1CC(O)CN1C(=O)NC1CCCCC1 (centres undefined)
0.7%,12%,2,8%,COCCCNC(=O)c1oc2ccc(S(=O)(=O)N(C)C3CCCCC3)cc2c1C
-1.8%,1%,/,/,COc1ccc(CNC(=O)C2(CC3CC(c4ccccc4)=NO3)CCN(C(=O)C3(C)CC3)CC2)cc1 (centres undefined)
1.3%,-4%,/,-4%,O=C(c1ccco1)N1CCN(S(=O)(=O)c2ccc(Br)cc2)CC1
1.0%,0%,/,/,CC(C)(C)[C@H]1COC(=O)[C@@H](Cc2ccc(F)cc2)CC/C=C/C[C@@H](CC(=O)N[C@@H](CO)Cc2ccccc2)C(=O)N1
0.9%,0%,/,-1%,CC(NC(=O)CNC(=O)[C@@H]1Cc2ccccc2CN1)c1ccccc1 (some centres undefined)
-4.7%,-2%,-2,22%,Cc1cccc(C(=O)Nc2ccc(CC(=O)O)cc2)c1
?,?,-1,-12%,O=C(NC(C(=O)N/N=C/c1c2ccccc2cc2ccccc12)c1n[nH]c(=O)c2ccccc12)c1ccccc1 (centres undefined)
-0.4%,0%,1,-5%,COc1ccc(CN=C2NN=C(c3ccccc3)CS2)cc1
0.6%,18%,/,-1%,CC(C)OCCCN(C)C1CCN(S(=O)(=O)c2ccc(-c3cc(C(F)(F)F)no3)s2)CC1
0.5%,2%,/,-33%,COc1ccc(NC(=O)c2csc(C)c2)cc1OC
0.0%,26%,-4,3%,CN1CC(=O)N(C)c2nc(Br)n(C)c2C1=O
?,-15%,-9,-39%,CCn1cc(Br)c(C(=O)Nc2cccc(SC)c2)n1
0.0%,-6%,/,1%,CCCCc1nc(SCC(=O)Nc2cccc(Cl)c2)n[nH]1
?,-12%,2,-8%,O=C(COc1cccnc1[N+](=O)[O-])Nc1cccc(S(=O)(=O)N2CCCCC2)c1
-0.5%,10%,/,-1%,CCc1ccccc1NC(=O)NNC(=O)CCc1ccccc1
-0.2%,10%,-1,-10%,COc1ccc(-c2nc(N3CCCC3)[nH]c(=O)c2C#N)cc1
0.0%,0%,-1,-1%,Cn1nc(C(F)(F)F)c(-c2ccccc2)c1NC(=O)CSCC(=O)O
/,/,-3,-1%,Cc1c(C(=O)Nc2ccccc2N2CCOCC2)sc2nc3n(c(=O)c12)CCC3
0.2%,-19%,-13,-30%,Cc1ccc2nc(-c3ccc(NC(=O)CNC4CC4)cc3)sc2c1
3.4%,3%,/,-23%,CC(=O)NN1C(=O)c2ccccc2NC1c1ccc(N(C)C)cc1 (centres undefined)
0.3%,0%,/,-15%,C=CCn1c(O)c(N=NC(=O)CNC(=O)Cc2ccccc2)c2ccccc21
-1.1%,-13%,-6,-11%,COc1ccc(Oc2coc3cc(OC(=O)c4cccs4)ccc3c2=O)cc1
5.1%,19%,/,/,O=C(COC(=O)Cn1nnc(-c2ccccc2)n1)Nc1ccccc1Br
?,1%,/,3%,c1ccc(-c2ccccc2OCCCCn2ccnc2)cc1
-0.2%,10%,/,/,CCOC(=O)c1c(NC(=O)COC(=O)c2ccc([N+](=O)[O-])cc2)sc(C(=O)N(C)C)c1C
1.7%,-3%,-1,-7%,COc1cc(-c2nc(-c3cccnc3)no2)cc(OC)c1OC
0.2%,1%,-5,9%,O=C(CCc1ccccc1)Nc1ccc(F)c([N+](=O)[O-])c1
-3.5%,14%,/,-1%,Cc1onc(-c2ccccc2Cl)c1C(=O)N1CCC(C)CC1
0.3%,8%,7,-5%,Cc1ccc(NC(=O)CSC2=NCCN2)cc1
18%,1%,-12,-9%,COC(=O)C1CCN(c2ccc([N+](=O)[O-])cc2[N+](=O)[O-])CC1
-0.3%,-17%,/,/,COc1ccc(OC)c(/C=C/C(=O)N2CCN(S(=O)(=O)c3ccc(C)cc3C)CC2)c1
-2.2%,1%,-9,-1%,NC(=O)c1cc2cc([N+](=O)[O-])ccc2oc1=O
-0.9%,0%,5,-9%,O=C(NCCO)C(=O)NCC1OCCCN1S(=O)(=O)c1cccs1 (centres undefined)
4.8%,5%,/,-4%,COc1ccc(CCNC(=O)CCC(=O)N2CCOc3ccc(C)cc32)cc1OC
0.9%,10%,1,0%,CCOC(=O)Cc1csc(NS(C)(=O)=O)n1
0.2%,-13%,-5,-14%,Cc1ccc(S(=O)(=O)N(CCO)Cc2cc3ccc(C)c(C)c3[nH]c2=O)cc1
10%,8%,/,-1%,COc1ccc(S(=O)(=O)N2CCC(C(=O)N3CCN(C)CC3)CC2)cc1OC
2.6%,20%,8,-8%,COc1ccc2nc3oc(C(=O)N4CCN(c5cccc(Cl)c5)CC4)cc3cc2c1
-1.1%,-11%,/,/,CN(C)c1cccc(C(=O)N/N=C/c2ccoc2)c1

# Quoted at random: 6 entries already listed
Rango-impB inh,Rango release inh,GLA inh pH 4.5,miR-21 reporter,Compound
0.2%,-13%,-5,-14%,Cc1ccc(S(=O)(=O)N(CCO)Cc2cc3ccc(C)c(C)c3[nH]c2=O)cc1
0.3%,8%,7,-5%,Cc1ccc(NC(=O)CSC2=NCCN2)cc1
-2.2%,1%,-9,-1%,NC(=O)c1cc2cc([N+](=O)[O-])ccc2oc1=O
-0.3%,-17%,/,/,COc1ccc(OC)c(/C=C/C(=O)N2CCN(S(=O)(=O)c3ccc(C)cc3C)CC2)c1
0.9%,10%,1,0%,CCOC(=O)Cc1csc(NS(C)(=O)=O)n1
3.4%,3%,/,-23%,CC(=O)NN1C(=O)c2ccccc2NC1c1ccc(N(C)C)cc1 (centres undefined)

# Next part.
Rango-impB inh,Rango release inh,GLA inh pH 4.5,miR-21 reporter,Compound
3.9%,1%,4,-5%,CC(C)c1ccc(NC(=O)NC2CCN(CC(=O)Nc3cccc4ccccc34)CC2)cc1
-0.5%,21%,-2,2%,O=C(O)C(O)C(O)c1nc2ccccc2[nH]1 (centres undefined)
-1.2%,1%,/,/,COc1ccc(C2OCC(C)([N+](=O)[O-])CO2)cc1 (centres undefined)
1.1%,5%,/,7%,CCS(=O)(=O)c1nc(S(=O)(=O)c2ccc(Cl)cc2)c(N2CCC(O)CC2)s1
-2.1%,11%,-18,1%,CCC(C)C(NC(=O)OCc1ccccc1)C(=O)NC(Cc1ccc(O)cc1)C(=O)OC (centres undefined)
0.6%,3%,4,-19%,Nc1nonc1-c1noc(CCCN2C(=O)c3ccccc3C2=O)n1
-1.1%,-18%,/,/,CC(C)(C)NC(=O)C[C@H]1C[C@H](C(=O)N2CCCCC2)[C@@]2(CCc3ccccc3)c3[nH]c4cc(-c5ccco5)ccc4c3CCN2C1=O
-1.5%,2%,0,-2%,CCN(Cc1cc2cc(C)ccc2[nH]c1=O)C(=O)c1cccc([N+](=O)[O-])c1
5.2%,-14%,/,/,CCCCn1c(N)c(N(CCOC)C(=O)COC(=O)COc2ccccc2C#N)c(=O)[nH]c1=O
0.5%,2%,3,16%,COc1ccc(-c2nc(CSCC(=O)N3CCN(c4cccc(C)c4)C(C)C3)c(C)o2)cc1OC (centres undefined)
-0.1%,-13%,-2,-2%,COc1cc2c(cc1OC)C(C(=O)O)C(c1cc(Br)c(O)c(OC)c1)N(C)C2=O (centres undefined)
/,/,8,-5%,CCOc1ccc(CN2CCN(c3cc(C)nc4c5c(C)cc(C)nc5nn34)CC2)cc1
-1.3%,-5%,/,/,CSc1ccc(C2=CC(=O)C[C@H](c3ccc(F)cc3)C2)cc1
-6.7%,-21%,-7,1%,CCCCCCCCCCCC(=O)N/N=C/c1ccco1
1.3%,-10%,-3,0%,COCCNCC1C(Oc2ccc(Cl)cc2)C(=O)N1c1ccccc1C (centres undefined)
-2.9%,0%,2,-32%,Cc1[nH]nc2c1C(c1c[nH]c3ccccc13)C(C#N)=C(N)O2 (centres undefined)
-7.3%,-16%,/,-60%,Cc1ccc2oc(C(=O)Nc3nonc3C)c(C)c2c1
?,?,4,-2%,CCc1ccc(C2C3=C(CC(C)(C)CC3=O)Nc3c2c(=O)[nH]c2nc(C)nn32)cc1 (centres undefined)
0.0%,-1%,-18,-7%,COc1ccc(-c2cc(C(F)(F)F)nc(NCc3cccs3)n2)cc1
2.4%,-10%,6,-2%,Cc1nc2c(cnn2-c2ccccc2)c(=O)[nH]1
-0.3%,6%,/,-1%&-4%,Cc1cc(C)n2nc(SCC(=O)Nc3ccccc3C)nc2n1
?,8%,-15,-9%,CCOc1ccc(N(C(C)C(=O)Nc2ccc(OC)cc2)S(C)(=O)=O)cc1 (centres undefined)
0.0%,-13%,/,-27%,Nc1nc(-c2cc3c(cc2Cl)OCCO3)cs1
1.8%,-17%,4,1%,COc1ccc(N2C(=O)CN(Cc3ccc(OC)c(OC)c3)C2=S)cc1
1.3%,23%,7,-44%,Cc1cccc(Nc2nnc(SCC3CCCCO3)s2)c1C (centres undefined)
-0.6%,?,/,0%,Cc1cc(Nc2cccc(C(=O)O)c2)n2ncnc2n1
-3.9%,8%,1,-3%,COC(=O)c1c(C)[nH]c(C)c1-c1ccccc1Cl
5.7%,-19%,/,/,COc1cc(C2=CCN(C(C)=O)CC2)ccc1OC(C)=O
-1.7%,-14%,/,/,Cc1ccccc1NC(=O)CSc1nc2[nH]c(=O)cc(O)c2s1
-1.4%,?,/,/,O=C(O)C1=C[C@H](c2ccccc2)C[C@H](OCCCCO)O1
-0.8%,5%,/,1%,Cc1ccccc1CC(=O)N1CCN(C(=O)c2ccco2)CC1
2.3%,-7%,/,/,O=C(COC(=O)c1ccccc1Cl)NC1CCCCCCC1
1.4%,6%,-2,1%,CCCn1c(SCC(=O)Nc2c(CC)cccc2CC)nnc1C(C)C
2.2%,-5%,-13,0%,CCCCc1ccc(Nc2nc(CCC)cc(=O)[nH]2)cc1
-1.4%,-2%,-2,-16%,C=CCn1c(C)csc1=Nc1ccc(C(=O)O)cc1
1.1%,0%,-4,0%,CCN(CC)CCN1C(=O)C(=O)/C(=C(/O)c2c(C)[nH]c(C(=O)OC)c2C)C1c1cccc(OC)c1 (centres undefined)
-0.2%,-8%,/,/,Cc1ccc(NC(=O)CN(C)C(=O)c2cccc(S(=O)(=O)N3CCCC3)c2)cc1
-2.0%,2%,3,2%,CCOc1cc(N2CCOCC2)c(OCC)cc1NC(=O)COc1ncnc2ccc(Br)cc12
4.5%,-7%,-5,8%,Cc1c([C@@H]2C[C@H]3CN(Cc4cccc(Cl)c4)C(=O)[C@]34CCCN24)cnn1C

# Sorted by value in Rango release inh (high to low): some entries from above
SMILES	Rango release inh
COc1ccc(-c2nc(N3CCCC3)[nH]c(=O)c2C#N)cc1	10%
COC(=O)C1CCN(c2ccc([N+](=O)[O-])cc2[N+](=O)[O-])CC1	1%
CCN(CC)CCN1C(=O)C(=O)/C(=C(/O)c2c(C)[nH]c(C(=O)OC)c2C)C1c1cccc(OC)c1 (centres undefined)	0%
